Lassa entry = inhibitors of Lassa virus binding or entry into cells. Lassa virus pseudotyped entry inhibition, cell-based qHTS; control for the full effect not named in the record; many of its hits are not listed in these tables. Potency, µM (top dose mostly 49.2 µM), for inactives: top-dose activity change, negative = inhibition, most hits filed as inhibitors. hit rate 4.1% among 18,000. AID 720533; active = well fitted inhibition curve with a large enough effect; inconclusive = small, poorly fitted or top-dose-only effect; inactive = no such curve, though single readings can be large or run the other way; tested in HEK293 cells; note: luciferase read-out
MARV entry inh = inhibitors of Marburg virus binding or entry into cells. Potency, µM (doses to about 49.2 µM), for inactives: at the top dose activity change, negative = inhibition, most hits filed as inhibitors. hit rate 6.5% among 18,000. AID 720532. Marburg virus pseudotype entry/binding inhibition, cell-based; control for the full effect not named in the record; many of its hits are not listed in these tables; active means well fitted inhibition curve with a large enough effect; inconclusive means small, poorly fitted or top-dose-only effect; inactive means no such curve, though single readings can be large or run the other way; tested in HEK293 cells; note: luciferase read-out
Numbers without * were called inactive; u = inconclusive; x = no result given; & = joins results of further samples; ! = not active in a repeat; [ ] = remark or other dose. % is set by controls: 0 for no effect and ±100 for the full control effect; potency is the fitted concentration of half-maximal effect. An excerpt; rates above refer to the full screens.

# | compound | Lassa entry | MARV entry inh
1 | C[C@@H]1[C@@H](c2ccccc2)Oc2c(Cl)cccc2S(=O)(=O)N1Cc1cccc(F)c1 | -18% | -45%
2 | C[C@@H]1C(c2ccccc2)CC(=O)C(=O)C[C@@H]1C(=O)N1CCCC1 (some centres not stated) | 50%[8.59 µM] | 62%[8.59 µM]
3 | Cc1cccc(C)c1Nc1oc(-c2ccccc2)nc1-c1cccc2ccccc12 | -16% | 2%
4 | COC[C@H]1O[C@@H](c2c(OC)cc(OC)cc2OC)[C@H](OC)[C@@H](OC)[C@@H]1OC | 3% | 26%
5 | CCCCCCCCCCCCCCC[C@@H](O)[C@H](CO)NC(=O)CCCCCCC | -2%&0% | 2%&11%
6 | COc1ccc(CN2C[C@H](Sc3nc4ccccc4[nH]3)C[C@H]2C(=O)N(C)C)c2ccccc12 | -11% | 4%
7 | CCN(CC)c1ccc(N=Nc2ccc(S(=O)(=O)N(C)C)cc2)c(S(=O)(=O)NCC[n+]2ccccc2)c1 | -6% | -6%
8 | CCOC(=O)[C@@H]1CSCCS(=O)(=O)N1C(=O)[C@H](CCSC)NC(=O)OC(C)(C)C | 9% | -19%
9 | Cc1nc(N=Nc2ccc(S(=O)(=O)O)cc2S(=O)(=O)O)c(COP(=O)(O)O)c(C=O)c1O | -8%&2% | u
10 | Cc1ccc(COCCN2CCN(S(=O)(=O)c3ccc(C)cc3)CCC2=O)cc1 | 14% | 41%
11 | Clc1ccc(COC(Cn2ccnc2)c2ccc(Cl)cc2Cl)cc1 (configuration not stated) | 35µM*! | u
12 | COC(=O)[C@H](COC(C)(C)C)NC(=O)O[C@@H]1C(=O)c2cc(Br)ccc2O[C@H]1c1cccc(OC)c1 | -6% | -14%
13 | CC[C@@H]1/C=C(\C)C[C@H](C)C[C@H](OC)[C@H]2O[C@@](O)(C(=O)C(=O)N3CCCC[C@H]3C(=O)O[C@H](/C(C)=C/[C@@H]3CC[C@@H](Cl)[C@H](OC)C3)[C@H](C)[C@@H](O)CC1=O)[C@H](C)C[C@@H]2OC | -9% | 4%
14 | CC(C)C[C@@H](CC(=O)N[C@@H](CCCN)CC(=O)N[C@@H]1CCCC[C@H]1C(=O)N[C@H](CC(=O)N[C@@H](CCC(=O)O)CC(=O)O)CC(C)C)NC(=O)[C@@H]1CNCC[C@H]1N | -8% | 14%
15 | COC1=C[C@H](C(=O)NC2CCN(Cc3ccccc3)CC2)C(C)C(c2ccccc2)CC1=O (some centres not stated) | 1%[8.59 µM] | -13%[8.59 µM]
16 | Cc1cccc(CN2[C@H](COC(=O)Nc3ccccc3)C=CS2(=O)=O)c1 | 5% | 12%
17 | COc1ccccc1CNc1ncnc2sc(C(=O)N3CCN(C)CC3)c(C)c12 | -17% | 5%
18 | CCOC(=O)C1CCCN(C(=O)c2cnn(-c3ncc4c(n3)-c3ccccc3CC4)c2C)C1 (configuration not stated) | 17% | -21%
19 | COC(=O)N[C@@H](C=Cc1ccco1)[C@]1(C(=O)OC)CCCC1=O | 5%[8.59 µM] | 3%[8.59 µM]
20 | CS(C)(=O)=O | 8% | 2%
21 | N[C@H](C(=O)O)[C@H]1C[C@H]1C(=O)O | 7% | u
22 | CO/N=C(\C(=O)N[C@@H]1C(=O)N2C(C(=O)O)=C(C[N+]3(C)CCCC3)CS[C@H]12)c1csc(N)n1 | 13%[17.8 µM] | 19%
23 | COc1ccc(-c2nc3c(c4c2C[C@H](c2ccccc2)OC4)CN(C(=O)N[C@@H](C)C(=O)OC(C)C)CC3)c(C)c1 | 1%[8.59 µM] | u
24 | O=C(NCCc1nnc2n1CCN(Cc1cc3ccccc3o1)CC2)c1ccoc1 | 0% | 3%
25 | CC(=O)CC(c1ccc([N+](=O)[O-])cc1)c1c(O)c2ccccc2oc1=O (configuration not stated) | -8%[17.8 µM] | 7%[17.8 µM]
26 | C=CCCCCCCCCCCCc1ccco1 | 8% | 0%
27 | ClC1=C(Cl)C2(Cl)C3C4C=CC(C4)C3C1(Cl)C2(Cl)Cl (configuration not stated) | 10% | 5%
28 | FC(F)(F)c1cnc(-c2cc3c(c(OCC4CCCO4)c2)OCCN(Cc2cccn2-c2nccs2)C3)c(Cl)c1 (configuration not stated) | -6% | -11%
29 | NC(C(=O)O)C(O)C(=O)O (configuration not stated) | 1% | 4%
30 | CNNC | -1% | 7%

Part of the list above, in transposed form.
(26) C=CCCCCCCCCCCCc1ccco1
(21) N[C@H](C(=O)O)[C@H]1C[C@H]1C(=O)O
assay / compound,26,21
Lassa entry,8%,7%
MARV entry inh,0%,u

New compounds follow.
# | compound | Lassa entry | MARV entry inh
31 | COc1cccc([C@@H]2Oc3ccc(OC)cc3C(=O)[C@H]2OC(=O)Nc2cc(OC)c(OC)c(OC)c2)c1 | u | 3%
32 | Cn1ccc2c(-c3ccc(CO)cc3)cc3c(c21)C1CCC3O1 (configuration not stated) | -11% | 25%
33 | COCCN(CCOC)Cc1cc(=O)oc2ccc3ccccc3c12 | 13% | 27%
34 | C=C(C(C)=O)C(O)c1ccc2ccccc2c1 (configuration not stated) | -3% | 5%
35 | COCOCCn1cc(CN2CCS(=O)(=O)N(Cc3ccc(-c4ccc(F)cc4)cc3)C(C)C2=O)nn1 (configuration not stated) | -17% | 24%
36 | COc1cc(=O)n2c(c1C(=O)NCc1ccc3c(c1)OCO3)CCN(C(=O)c1ccc(C)cc1)CC2 | 7% | -1%
37 | CCc1cc(OC)c(C[C@@H](C)N)cc1OC | u | u
38 | CCCCCC(=O)N1C[C@@H](n2cc(-c3ccc(F)cc3)nn2)[C@H](O)C[C@H]1c1ccc(OC)cc1 | x | -35%
39 | C/C=C(\C)C(=O)O[C@H]1CC(C)=C2C(=O)C=C(C)C2[C@@H]2OC(=O)[C@@](C)(OC(=O)C=C(C)C)C21 (some centres not stated) | u | 4%
40 | CC[C@](N)(CCC(=O)O)C(=O)O | 21%&-8% | 25%&11%

Ordered by SMILES length (falling): 5 of the compounds above.
# | compound | Lassa entry | MARV entry inh
25 | CC(=O)CC(c1ccc([N+](=O)[O-])cc1)c1c(O)c2ccccc2oc1=O (configuration not stated) | -8%[17.8 µM] | 7%[17.8 µM]
10 | Cc1ccc(COCCN2CCN(S(=O)(=O)c3ccc(C)cc3)CCC2=O)cc1 | 14% | 41%
24 | O=C(NCCc1nnc2n1CCN(Cc1cc3ccccc3o1)CC2)c1ccoc1 | 0% | 3%
37 | CCc1cc(OC)c(C[C@@H](C)N)cc1OC | u | u
26 | C=CCCCCCCCCCCCc1ccco1 | 8% | 0%

Later entries.
# | compound | Lassa entry | MARV entry inh
41 | CNC(=O)[C@H]1O[C@@H](n2cnc3c(NCc4cccc(I)c4)ncnc32)[C@H](O)[C@@H]1O | -16%&-7% | 8%&-13%
42 | O=C(OOC(=O)c1ccccc1)c1ccccc1 | 2%&-11% | 6%&7%
43 | COC(=O)C[C@H]1c2ccccc2C2=C(C[C@@H](C)[C@H]3C(=O)NC(=O)[C@@H]23)N1C(=O)OC | 0%[8.59 µM] | 3%[8.59 µM]
44 | C[C@@H](N)Cc1cnc[nH]1 | -5%&-2% | 0%&-1%
45 | CCOC(=O)[C@H](CCc1ccccc1)N[C@@H](C)C(=O)N1Cc2cc(OC)c(OC)cc2C[C@H]1C(=O)O | 7% | 8%
46 | CN1c2ccccc2[C@@]2(O)C(=O)[C@@]1(C)[C@@H]1c3ccccc3C[C@H]12 | 20%[8.59 µM] | -28%[8.59 µM]
47 | Cc1ccccc1C1(CC(=O)N2CC3(C)CC2CC(C)(C)C3)CC(=O)N(Cc2cccnc2)C1=O (configuration not stated) | -31% | -21%
48 | O=C(O)CCC/C=C\C[C@@H]1[C@@H](/C=C/[C@@H](O)COc2cccc(Cl)c2)[C@H](O)C[C@@H]1O | 0%&-9%&8%&5%&-1% | 6%&-4%&5%&14%&13%
49 | N#Cc1cc2[nH]c(=O)c(=O)[nH]c2cc1[N+](=O)[O-] | -8% | 16%
50 | NC[C@@H]1O[C@@H](O[C@H]2[C@H](O)[C@@H](O[C@@H]3O[C@@H](CO)[C@H](O)[C@@H](N)[C@@H]3O)[C@H](N)C[C@@H]2N)[C@@H](O)[C@H](O)[C@H]1O | -6% | 18%
51 | CC1(c2ccccc2)OC(C(=O)O)=CC1=O (configuration not stated) | 0% | 9%
52 | COc1cc(-c2cc(C)c3c(OC)ccc(OC)c3n2)cc2c1OCCN(C(=O)CCn1ccc(C)n1)C2 | -3% | -18%
53 | Cc1cccc(C2=NN(c3ccccc3)[C@H](CO)[C@H]2c2ccc(Cl)cc2)c1 | -26% | -22%
54 | CCC(=O)NS(=O)(=O)c1ccc(-c2c(-c3ccccc3)noc2C)cc1 | -8% | 11%
55 | CC(=O)OO | -5% | 3%
56 | CC(=O)N[C@H]1[C@H]([C@H](O)[C@H](O)CO)OC(C(=O)O)=C[C@@H]1N=C(N)N | 4% | -11%
57 | CC(=O)OC1C2C(OC(=O)Cc3ccccc3)C(C)CC2(OC(C)=O)C(=O)/C(C)=C/C2C(CC[C@@]13CO3)C2(C)C (some centres not stated) | 1% | -16%
58 | C=C[C@]1(C)Cc2occ(C)c2C[C@H]1C(=C)C(=O)O | 8% | 1%
59 | COc1cc2c(cc1OC)C1C(=O)c3ccc4c(c3OC1CO2)C=CC(C)(C)O4 (configuration not stated) | -19% | u
60 | C#CCN(C)Cc1ccccc1 | -11%[17.8 µM] | 19%[17.8 µM]
61 | O=C(Nc1cccc2ccccc12)OC[C@@H]1CSCCS(=O)(=O)N1 | 38%[activator] | u
62 | COC1C=CC23c4cc5c(cc4CN(CC2O)C3C1)OCO5 (configuration not stated) | 7.1µM* | 2.2µM*
63 | OC(CN1CCN(c2cccc(Cl)c2)CC1)C(c1ccccc1)c1ccccc1 (configuration not stated) | 28µM* | 35µM*
64 | CCc1cc(C(=O)NCC2Cc3cc(C)cc(-c4cc(C(C)=O)ccc4F)c3O2)n(C)n1 (configuration not stated) | 4% | -17%
65 | CCN(CC)c1cc2c(c3c1ccn3C)C1CCC2C1 (configuration not stated) | 17% | -14%
66 | O=C(O)CCc1nc2ccccc2[nH]1 | -11% | -4%
67 | O=P1(N(CCCl)CCCl)NCCCO1 (configuration not stated) | 3%&-2% | u
68 | NC(=O)[C@@H]1CCCN1C(=O)CC1(c2cccc(F)c2)CC(=O)N(C2CCCC2)C1=O (some centres not stated) | 42%[activator] | -11%
69 | CC(=O)OCC(=O)[C@@]1(OC(C)=O)[C@H](C)C[C@H]2[C@@H]3C[C@H](F)C4=CC(=O)C=C[C@@]4(C)[C@]3(F)[C@H](O)C[C@@]21C | 0%[17.8 µM] | -15%[17.8 µM]
70 | Cc1ccc(S(=O)(=O)N2CCC(=O)N(CCOCc3cccc(F)c3)CC2)cc1 | x | 23%
71 | CC(=O)c1ccc(F)c(-c2cc(C)cc3c2OC(CNC(=O)c2cnc4ccccn4c2=O)C3)c1 (configuration not stated) | u | u
72 | COc1ccc2c(c1)-c1nc(-n3ncc(C(=O)NC[C@@H]4CCCN5CCCC[C@H]45)c3C)ncc1CC2 | 35µM* | 5µM*
73 | O=C(Nc1ccc(Cl)cc1)Nc1ccc(Cl)c(Cl)c1 | 13µM* | 14µM*
74 | Cc1c(C(=O)N(C)Cc2nccs2)sc2ncnc(NCC3CCCO3)c12 (configuration not stated) | 9% | 0%
75 | Cc1nc2cc(NC(=O)[C@@H]3C[C@@H](Sc4ccccn4)CN3Cc3ccc(F)cc3F)ccc2s1 | -7% | -20%
76 | CCC1CN(Cc2cn[nH]c2-c2ccccc2)Cc2cc(OC)ccc2O1 (configuration not stated) | -1% | 7%
77 | C[C@H](CCC(=O)O)C1CC[C@H]2C3CC[C@@H]4C[C@H](O)CC[C@]4(C)C3C[C@H](O)[C@]12C (some centres not stated) | -2% | -14%
78 | CCC1(c2ccccc2)NC(=O)NC1=O (configuration not stated) | -7% | 9%
79 | COC(=O)[C@H]1C[C@@]2(CC=C(C)C)C(=O)[C@@](CC=C(C)C)(C(=O)C(C(=O)c3ccccc3)=C2OC)C1(C)C | -3%[8.59 µM] | -31%[8.59 µM]
80 | CC1CCCCN1CCCOC(=O)c1ccccc1 (configuration not stated) | -4% | u
81 | C[C@@]12CCc3occc3[C@H]1CC[C@]13CC(=O)[C@@H](CC[C@H]12)C3 | -5% | -11%
82 | COc1cccc(CS(=O)(=O)c2nnnn2CC(C)C)c1 | -1% | -12%
83 | C[n+]1ccc(/C=C/c2ccc3ccccc3c2)cc1 | 11µM* | u
84 | C[C@@H]1CN(Cc2ccc3c(c2)CN(Cc2cccc4cccnc24)CCO3)C[C@H](C)O1 | 0% | -23%
85 | O=c1cc(-c2ccc(O)cc2)oc2c([C@@H]3O[C@H](CO)[C@@H](O)[C@H](O)[C@H]3O)c(O)cc(O)c12 | -1% | -6%
86 | COc1cc(=O)n2c(c1C(=O)NC(C)c1ccco1)CCN(Cc1ccc3nsnc3c1)CC2 (configuration not stated) | -10% | 2%
87 | Cc1ccccc1C(=O)N1CCc2c(cnc(C)c2CNC(=O)c2ccc3c(c2)OCO3)C1 | -7% | -15%
88 | CC(=O)OCC(=O)[C@@]1(O)CCC2C3CC[C@H]4CC(O)CC[C@@]4(C)C3C(=O)C[C@]21C (some centres not stated) | -4% | -6%
89 | O=C1CCC(c2ccc(-n3ccnc3)cc2)=NN1 | 0% | -10%
90 | Fc1cccc(COc2ccc(Nc3ncnc4sc(-c5ccco5)cc34)cc2Cl)c1 | -15% | u
91 | O=C(O)C(=O)Nc1cccc(-c2nn[nH]n2)c1 | -14% | 19%

Compound activity (PubChem)
